High-throughput results: PubChem BioAssay, several laboratories
Beta cell apopt: beta cell apoptosis inhibition | INS-1E cytokine-induced death, ATP luminescence, 48 h; percent of positive-control rescue, neutral wells zero | protection from apoptosis, % (no concentration beside the values) | 300,000 tested, 0.8% active;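 active means all replicates at 75% or more, or half of them and the mean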;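 further: 0% = cytokine-treated negative control wells and 100% = positive control rescue; higher means more ATP so stronger rescue from cytokine killing; wells of about 40 µL received 100 nL stock; the first replicate is given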
E coli growth: E. coli growth inhibition. Escherichia coli growth, OD600, 23 h; stronger effect = lower value. OD600 absorbance (concentration not given with the values). 330,000 tested, 0.21% active;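 active means OD600 absorbance below the run mean of sample wells minus 3.6 SD, in any replicate, cut at about 0.56 in these data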;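 further: stock transfer was 300 nL into about 60 µL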
UCH37 inh: human UCH37 deubiquitinating enzyme inhibition; purified proteasome/UCH37, Ub-AMC cleavage fluorescence; AID 588478; Q9Y5K5; inhibition, % (test concentration not listed); 330,000 tested, 0.33% active;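 active means mean of two replicates above 20%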;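 further: 0% = compound-free wells with enzyme and 100% = wells lacking proteasome; stock transfer was 100 nL into about 20 µL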
Target sequence (Q9Y5K5 whole entry, looked up): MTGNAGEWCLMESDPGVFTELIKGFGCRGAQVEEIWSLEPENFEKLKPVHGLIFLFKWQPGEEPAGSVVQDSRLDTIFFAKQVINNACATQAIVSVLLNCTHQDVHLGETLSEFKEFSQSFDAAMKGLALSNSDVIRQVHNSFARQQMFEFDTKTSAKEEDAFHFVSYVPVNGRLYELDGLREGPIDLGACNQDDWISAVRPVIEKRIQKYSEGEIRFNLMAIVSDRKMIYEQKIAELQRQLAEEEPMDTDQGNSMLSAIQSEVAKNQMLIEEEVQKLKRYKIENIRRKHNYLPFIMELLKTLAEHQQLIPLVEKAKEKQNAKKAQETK
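Material: Human UCH37 enzyme supplied as purified proteasome complex | Schedule: 30 min compound-proteasome preincubation then 25 min substrate reaction, room temperature | Detection: AMC fluorescence from Ub-AMC cleavage, excitation 355 nm, emission 460 nm | Benchmarks: Wells without proteasome as full block, compound-free enzyme plus substrate as uninhibited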
FGF22 binding: binders of recombinant human FGF22 by thermal shift | Q9HCT0 | SYPRO orange fluorescence; percent of sucrose octasulfate shift, DMSO zero | calls only at 9.99 µM | 340,000 tested, 1.5% active;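 active means melting point raised past a set limit in the mean and every replicate; three in four hits are not shown here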
Target sequence (Q9HCT0 whole entry, looked up): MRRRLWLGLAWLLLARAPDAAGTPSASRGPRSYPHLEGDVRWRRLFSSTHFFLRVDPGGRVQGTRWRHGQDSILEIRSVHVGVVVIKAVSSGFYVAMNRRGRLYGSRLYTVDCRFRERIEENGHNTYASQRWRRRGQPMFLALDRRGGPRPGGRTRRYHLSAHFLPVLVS
MLL AF4-AF9 inh: MLL-AF4/AF9 protein interaction inhibition. P42568. AlphaScreen, biotin-AF4 peptide binding to FLAG-AF9. inhibition, % at 10 µM. 350,000 tested, 0.47% active. AID 651704;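 active means every replicate reaching a set inhibition limit, whatever the replicate mean, cut at about 25% in these data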;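 further: 0% = plate neutral control median and 100% = total signal loss; the record names both 10 and 1 µM as test concentration; the first replicate is given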
Target sequence (P42568 whole entry, looked up): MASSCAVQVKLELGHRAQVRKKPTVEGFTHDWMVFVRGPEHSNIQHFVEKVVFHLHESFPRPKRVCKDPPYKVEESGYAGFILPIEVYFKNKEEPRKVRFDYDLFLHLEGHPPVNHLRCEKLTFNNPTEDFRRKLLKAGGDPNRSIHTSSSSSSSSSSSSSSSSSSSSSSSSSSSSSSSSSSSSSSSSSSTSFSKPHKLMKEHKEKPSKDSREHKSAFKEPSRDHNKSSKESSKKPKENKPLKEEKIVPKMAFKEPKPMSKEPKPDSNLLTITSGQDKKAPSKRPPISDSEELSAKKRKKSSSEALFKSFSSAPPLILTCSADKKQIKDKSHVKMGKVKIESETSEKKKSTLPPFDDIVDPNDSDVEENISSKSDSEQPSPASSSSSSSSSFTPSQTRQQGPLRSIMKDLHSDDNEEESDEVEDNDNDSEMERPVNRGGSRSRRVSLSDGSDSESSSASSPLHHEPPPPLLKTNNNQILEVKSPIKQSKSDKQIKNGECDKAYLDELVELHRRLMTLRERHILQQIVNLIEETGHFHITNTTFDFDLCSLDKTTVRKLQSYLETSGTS
rRNA inh HTS: selective bacterial rRNA inhibition in E. coli. GFP signal change (wild-type ribosome), % (concentration not given with the values). E. coli WT GFP vs humanized-ribosome RFP mutants, fluorescence, 24 h; stronger effect = lower value; DMSO median 0, no signal -100. 350,000 tested, 1.6% active;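 active means significant combined selectivity score with lowered wild-type GFP, culture density cut under 30%, mutant RFP and density less affected; inactive means any of these conditions unmet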; further: one replicate is shown; some compounds called inactive have numbers as strong as hits
Bfl-1 A1 inh: inhibitors of the anti-apoptotic protein A1, read as caspase activation | MEF A1-2A-BIM cells, Caspase-Glo 3/7 luminescence, 3 h; percent of clofoctol response, vehicle zero | caspase activation, % (concentration not given with the values) | 330,000 tested, 0.066% active | AID 2462;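 active means over half of replicate activation scores above 10%, or exactly half above 10 with the replicate mean above 10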;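 further: wells of about 30 µL received 50 nL stock; many hits fall short of the cut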
T cruzi inh: T. cruzi replication inhibition | T. cruzi beta-gal in NIH3T3, luminescence, 90 h | inhibition, % (test concentration not listed) | 300,000 tested, 1.4% active;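 active means mean inhibition across valid replicates above about 55%, limit read from the data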;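 further: signal also drops with host cell toxicity which is not excluded here; 0% = plate median of DMSO wells and 100% = zero luminescence signal; higher percent means less beta-gal luminescence so fewer parasites; stock transfer was 50 nL into about 50 µL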
rRNA inh HTS OD600: second read-out of rRNA inh HTS, no call of its own (marks repeat the call); OD600 change, %; measured here: OD600 growth;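 optical density of the mix in the first replicate; 0 = DMSO median and -100 = no signal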
rRNA inh HTS RFP: also measured in rRNA inh HTS; calls as there; RFP signal change, %; measured here: RFP humanized mutant strains;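 first replicate; 0 = DMSO median and -100 = no signal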
The depositor's hits bear a star; i = inactive; . = not tested or not shown.

SMILES | Beta cell apopt | E coli growth | UCH37 inh | FGF22 binding | MLL AF4-AF9 inh | rRNA inh HTS | rRNA inh HTS OD600 | rRNA inh HTS RFP | Bfl-1 A1 inh | T cruzi inh
Cc1ccc(NS(=O)(=O)c2cn(C)c(=O)n(C)c2=O)c(C)c1 | -1 | 0.77 | 1.9 | i | -2.4 | 13 | 13 | 1.3 | 0.4 | -8
COCCNC(=O)C(OC(=O)c1cc2oc(C)cc2n1C)C(C)C (centres undefined) | 0 | 0.67 | 2.4 | . | . | . | . | . | 0.3 | -6
CCOC(=O)Cc1csc(NC(=O)c2sc3nc4c(C)cc(C)cc4cc3c2N)n1 | -9 | 0.68 | 8.1 | . | . | . | . | . | -0.1 | -21
O=C(NCCNc1ccc([N+](=O)[O-])cc1)c1ccccc1Br | -12 | 0.62 | 7.4 | i | 4.0 | -14 | -4 | -5.2 | -0.5 | -5
O=C(Oc1ccc(N(Cc2cccs2)C2=NS(=O)(=O)c3ccccc32)cc1)c1ccco1 | 7 | 0.8 | -1.3 | . | . | . | . | . | 0.9 | 24
CC1CC(=O)c2cnc(N3CCOCC3)nc2C1 (centres undefined) | 3 | 0.72 | 0.1 | . | . | . | . | . | -0.1 | -12
CCN(CC(=O)NCc1cccs1)S(=O)(=O)c1cccc(Br)c1 | -1 | 0.72 | 0.2 | i | 0.0 | 4 | -1 | -0.1 | -0.2 | .
Cc1cccc(-c2ccc(NC(=O)C3CCN(CC4CC4)CC3)cc2)c1 | 2 | 0.65 | 5.0 | i | 9.2 | -35 | -63 | 3.5 | 0.5 | 17
CC(=O)Nc1ccc(NC(=O)COC(=O)c2cc([N+](=O)[O-])ccc2N2CCOCC2)cc1 | -4 | 0.72 | 6.4 | i | 3.1 | 1 | 8 | -0.3 | -0.1 | -1
CN(C)c1ccc(NS(=O)(=O)c2ccc(Cl)cc2)cc1 | 10 | 0.72 | 4.9 | . | . | . | . | . | -1.9 | 3
COc1ccc(C2CC(c3c(-c4ccccc4)c4cc(Cl)ccc4[nH]c3=O)=NN2S(C)(=O)=O)cc1OC (centres undefined) | 6 | 0.79 | 1.2 | . | . | . | . | . | 0.3 | 25
O=C(CN1CCCCC1)NN(Cc1ccccc1)c1ccccc1 | -4 | 0.68 | 4.1 | i | 1.4 | 7 | -2 | -1.6 | 0.3 | -17
Cc1nnc(SCC(=O)NC(=O)NC(C)C)s1 | -5 | 0.63 | 1.0 | i | 0.5 | 12 | 8 | 2.2 | -0.1 | 9
CC(NC(=O)COC(=O)CCC(=O)c1ccc(F)cc1)c1ccccc1 (centres undefined) | -8 | 0.62 | 1.7 | i | -1.8 | -8 | 2 | 0.1 | 0.2 | .
Cc1cccc(C(C)C)c1NC(=O)c1c(-c2ccccc2)noc1C | -13 | 0.68 | 2.4 | i | -7.1 | 2 | 4 | -1.1 | 0.6 | -2
O=C1CC(N2CCN(Cc3ccc(Cl)cc3)CC2)C(=O)N1CCc1ccccc1 (centres undefined) | -1 | . | . | i | 0.5 | -15 | -6 | 1.1 | 0.4 | 9
Cc1nc(C)c(-c2csc(NCCc3ccccc3)n2)s1 | 78* | 0.71 | -2.2 | . | . | 1 | -6 | 3.3 | -0.8 | 13
CCOCCCN(Cc1ccco1)S(=O)(=O)c1csc(C(N)=O)c1 | -2 | 0.67 | 4.7 | i | 0.7 | 5 | 4 | -0.5 | 1.5 | 0
Nn1c(SCC(=O)N2CCCC2=O)nnc1-c1cccs1 | -3 | 0.64 | 0.3 | i | 0.8 | 1 | -1 | -1.9 | 0.6 | -5
O=C(CCNC(=O)c1ccc([N+](=O)[O-])cc1)NCCc1ccccc1 | -6 | 0.66 | 6.6 | i | -13 | 10 | 23 | -1.7 | 0.2 | -9

Complete entries, quoted from the list:
O=C1CC(N2CCN(Cc3ccc(Cl)cc3)CC2)C(=O)N1CCc1ccccc1 (centres undefined) is listed with Beta cell apopt: -1; E coli growth: .; UCH37 inh: .; FGF22 binding: i; MLL AF4-AF9 inh: 0.5; rRNA inh HTS: -15; rRNA inh HTS OD600: -6; rRNA inh HTS RFP: 1.1; Bfl-1 A1 inh: 0.4; T cruzi inh: 9
O=C(CCNC(=O)c1ccc([N+](=O)[O-])cc1)NCCc1ccccc1 is listed with Beta cell apopt: -6; E coli growth: 0.66; UCH37 inh: 6.6; FGF22 binding: i; MLL AF4-AF9 inh: -13; rRNA inh HTS: 10; rRNA inh HTS OD600: 23; rRNA inh HTS RFP: -1.7; Bfl-1 A1 inh: 0.2; T cruzi inh: -9
COc1ccc(C2CC(c3c(-c4ccccc4)c4cc(Cl)ccc4[nH]c3=O)=NN2S(C)(=O)=O)cc1OC (centres undefined) is listed with Beta cell apopt: 6; E coli growth: 0.79; UCH37 inh: 1.2; FGF22 binding: .; MLL AF4-AF9 inh: .; rRNA inh HTS: .; rRNA inh HTS OD600: .; rRNA inh HTS RFP: .; Bfl-1 A1 inh: 0.3; T cruzi inh: 25

Following part
SMILES | Beta cell apopt | E coli growth | UCH37 inh | FGF22 binding | MLL AF4-AF9 inh | rRNA inh HTS | rRNA inh HTS OD600 | rRNA inh HTS RFP | Bfl-1 A1 inh | T cruzi inh
Cc1ccccc1Nc1nnc(SCC(=O)c2c(N)n(C)c(=O)n(C)c2=O)s1 | 2 | 0.7 | 4.0 | i | 0.9 | 6 | 0 | 3.3 | 0.5 | 2
O=C(Nc1ccccc1C(F)(F)F)N1CCCC(O)C1 (centres undefined) | 2 | 0.68 | -2.9 | . | . | . | . | . | 0.8 | -14
COc1cc([N+](=O)[O-])ccc1NC(=S)Nn1cnnc1 | 3 | 0.7 | 9.3 | i | 1.3 | -5 | 11 | 5.4 | 0.2 | 4
Cc1ccc(NC(=O)C(=O)NCCc2c[nH]c3ccccc23)c(C)c1 | -8 | 0.69 | 5.7 | i | -0.9 | 5 | -1 | -1.0 | -0.4 | -3
C=CCC[C@@H](Cc1ccc(F)cc1)C(=O)OC[C@@H](Cc1ccccc1)NC(=O)[C@@H](CC=C)CC(=O)N[C@@H](CO)Cc1ccccc1 | 4 | . | -0.5 | i | 2.4 | 19 | 20 | -3.5 | -0.9 | .
CC12CCC(C(=O)N3CCCc4ccccc43)(CC1=O)C2(C)C (centres undefined) | 2 | 0.68 | -1.2 | . | . | . | . | . | 0.3 | 2
O=C(COC(=O)C1CC1)Nc1ccc(Cl)cn1 | -2 | 0.66 | -0.6 | i | 1.7 | 2 | 15 | 0.7 | -0.7 | .
O=C(NCCCO)c1cc2ccccc2[nH]1 | -11 | 0.64 | 0.4 | i | -0.6 | 7 | 12 | 1.4 | -1.1 | -1
CN(C)c1ccc(/C=C/c2nnnn2-c2ccccc2)cc1 | 4 | 0.64 | -77 | . | . | . | . | . | -2.8 | 51
COc1ccc(N2CCN(C(=O)CCCC3=NS(=O)(=O)c4ccccc4N3)CC2)cc1 | . | 0.67 | 6.1 | . | . | . | . | . | -1.4 | -3
CCN1CCCC1Cn1cnc2c([nH]c3ccc(Cl)cc32)c1=O (centres undefined) | -5 | 0.74 | -2.8 | . | . | . | . | . | 1.6 | 32
Cc1onc(-c2ccccc2)c1C(=O)N(CC(C)C)c1c(N)n(CC(C)C)c(=O)[nH]c1=O | -4 | 0.68 | 1.8 | i | 0.4 | 14 | 12 | 5.0 | 1.4 | .
O=C1OC[C@H]2CCCN2C(=O)[C@@H](CC(=O)N(CCO)Cc2ccccc2)C/C=C\CC[C@H]1Cc1ccc(F)cc1 | -4 | . | 4.1 | i | 1.0 | -16 | -9 | 15 | -0.2 | .
O=C(CCCCCN1C(=O)C2C3C=CC(C3)C2C1=O)Nc1nccs1 (centres undefined) | -2 | 0.71 | 3.5 | i | -0.8 | 10 | 8 | 2.7 | 0.3 | -12
COCCN1Cc2cccc(C(=O)Nc3ccc(S(=O)(=O)N4CCCCC4)cc3)c2C1=O | -1 | 0.69 | -3.0 | i | 0.3 | 6 | 5 | -1.4 | 0.0 | -4
CN(C)C(=O)C1C2NC(=S)N(c3ccccc3)C1(C)Oc1ccccc12 (centres undefined) | -9 | 0.71 | 2.7 | i | -4.6 | 10 | 14 | 1.3 | 0.3 | 6
Cn1c(NC(=O)c2cc(Cl)ccc2Cl)cc(=O)n(C)c1=O | 4 | 0.77 | 7.1 | i | 5.3 | -6 | -3 | 3.8 | -0.1 | 2
CCOC(=O)c1ccc(NC(=O)c2c(C)[nH]c(C(=O)OCC)c2C)cc1 | 13 | 0.67 | 2.8 | . | . | . | . | . | -0.6 | -10
CC1(C)CC(NC(=O)C2CCN(S(=O)(=O)c3cccc(C(F)(F)F)c3)CC2)CC(C)(C)N1 | 1 | 0.68 | 2.1 | i | -0.5 | 23 | 14 | 1.5 | 0.0 | .
CCCS(=O)c1nc(C)cc(C)c1S(C)(=O)=O (centres undefined) | -8 | 0.71 | 2.6 | i | -0.8 | 29 | 30 | 4.4 | 0.0 | 3
Clc1ccc(Cc2noc(-c3cccs3)n2)cc1 | -7 | 0.65 | 2.2 | . | . | . | . | . | -1.7 | 18
CC(=O)Nc1nonc1NC(=O)c1ccc(F)cc1 | -2 | 0.71 | 2.8 | . | . | . | . | . | 1.1 | 2
Clc1ccccc1-c1nnc2n1-c1ccccc1SC2 | . | 0.61 | -0.1 | i | 0.5 | -5 | -22 | 0.2 | 0.4 | 10
CCOC(=O)C1CCCN(C2=NC(=O)/C(=C/c3ccc(O)c(OC)c3)S2)C1 (centres undefined) | . | 0.69 | 4.5 | i | 0.9 | 0 | -2 | 1.9 | 0.4 | -7
Cc1ccc(/C=C/C(=O)OCC(=O)NC(=O)NCc2ccccc2)cc1 | 0 | 0.7 | 2.4 | i | -7.1 | 4 | 10 | 0.3 | -0.1 | .
O=C(CCc1ccc(S(=O)(=O)NCCc2ccccc2)cc1)NCc1ccc2c(c1)OCO2 | . | 0.73 | 3.1 | . | . | . | . | . | -0.1 | 6
CCN1CCN(c2cc(C)c3cc(NC(=S)N4CCCC(C)C4)ccc3n2)CC1 (centres undefined) | 1 | 0.7 | 1.2 | i | 15 | -1 | 4 | 6.6 | -0.3 | 36
CCOC(=O)C1=CN(Cc2ccc(OC)cc2)C=C(C(=O)OCC)C1c1cccs1 | -8 | 0.67 | -226 | i | -7.0 | 9 | -9 | -4.6 | -0.3 | 38
Cc1ccc(NC(=O)N2CCN(S(=O)(=O)c3ccccc3)CC2)cc1 | 2 | 0.7 | 1.4 | i | -0.5 | -2 | 2 | -1.4 | -0.3 | -11
O=C1COc2ccc(S(=O)(=O)N3CCC(C(=O)NCc4ccc(F)cc4)CC3)cc2N1 | . | 0.68 | 1.4 | i | 0.0 | 0 | 10 | -0.4 | . | -18
CC(C)OC(=O)c1sc2nc3c(cc2c1N)C(=O)CCC3 | 3 | 0.78 | -3.1 | . | . | . | . | . | 0.2 | 17
O=C(c1ccccc1)C1CCN(C(=O)C2CCC(=O)N(Cc3cccc(F)c3)C2)CC1 (centres undefined) | . | 0.7 | 4.0 | i | 3.5 | 6 | 7 | 0.4 | . | -4
OC(CN1C2=NCCCN2c2ccccc21)c1ccc(Cl)cc1 (centres undefined) | . | 0.67 | 4.8 | i | -1.8 | 9 | 6 | 1.7 | 0.8 | 10
C#CCN1C(=O)S/C(=C\c2ccc(-c3ccc(Cl)c(C(=O)O)c3)o2)C1=O | . | 0.64 | 7.4 | i | -3.6 | -28 | -26 | -4.2 | -2.7 | -4

Not all compounds are listed; rates above refer to the full screens.
